Screening results deposited in PubChem by several laboratories.
UUG fidelity: alters start codon recognition fidelity in yeast. S. cerevisiae UUG-firefly luciferase reporter, luminescence/redox ratio. activity score, % at 18.7 µM. hit rate 0.13% among 350,000;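 active means replicate mean at a twofold rise or more, about +100% in these data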;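 further: firefly luciferase made from a UUG start codon reports start codon fidelity; reporter light over untreated wells divided by growth signal over untreated wells; some hits fall short of that in this replicate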
Env fusion inh: HIV envelope-mediated fusion inhibition; inhibition, % at 12.3 µM; AID 651610; hit rate 1.1% among 360,000; HeLa-JRFL Env/CEM21 cell fusion, luciferase;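 active means mean replicate inhibition score of at least 50 and every replicate individually at or above 50; inconclusive means only one of the two criteria met; inactive means mean below 50 and not all replicates reaching 50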;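 further: 0% = plate neutral controls and 100% = maraviroc near 300 nM; one replicate is shown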
PABP FP inh: blocks human PABP binding to poly(A) RNA; P11940; fluorescence polarization; inhibition, % at 35 µM; hit rate 1% among 290,000; AID 2014;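 active means 50% or more with normal probe brightness, or confirmed in later tests; inconclusive means above 50% with abnormal brightness, or retests that disagree; inactive means below 50% or failed in later tests; about a fifth of its hits are not listed in these tables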;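 further: calls also rest on retests at 20 µM and on dose response follow-up; controls were probe without protein and protein plus probe with vehicle; some compounds called inactive have numbers as strong as hits; many hits fall short of the cut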
Target sequence (P11940 whole entry, looked up): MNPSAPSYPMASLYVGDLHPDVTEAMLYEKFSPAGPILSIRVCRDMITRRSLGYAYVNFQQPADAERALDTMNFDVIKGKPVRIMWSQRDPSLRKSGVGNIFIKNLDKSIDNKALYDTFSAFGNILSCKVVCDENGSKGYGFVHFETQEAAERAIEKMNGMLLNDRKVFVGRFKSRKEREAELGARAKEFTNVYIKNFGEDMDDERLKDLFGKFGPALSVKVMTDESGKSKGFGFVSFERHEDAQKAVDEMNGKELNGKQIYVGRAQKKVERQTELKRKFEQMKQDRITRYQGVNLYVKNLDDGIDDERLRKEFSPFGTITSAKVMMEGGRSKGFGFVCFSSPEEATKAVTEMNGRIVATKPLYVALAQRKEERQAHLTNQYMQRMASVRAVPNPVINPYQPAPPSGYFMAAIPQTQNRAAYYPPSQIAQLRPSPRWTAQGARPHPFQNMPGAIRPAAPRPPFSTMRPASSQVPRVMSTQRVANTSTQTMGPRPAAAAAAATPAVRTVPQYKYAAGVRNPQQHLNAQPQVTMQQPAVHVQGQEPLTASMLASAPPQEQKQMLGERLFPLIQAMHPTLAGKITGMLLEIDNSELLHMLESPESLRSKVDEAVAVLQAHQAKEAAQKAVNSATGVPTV
MT1-MMP act inh: inhibitors of human MT1-MMP activation; HT1080 RFP-PRO-GFP cells, GFP/RFP ratio fluorescence, overnight; percent of plate control window, DMSO zero; hit rate 0.061% among 360,000; P50281; GFP/RFP ratio change, % at 20 µM;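 active means GFP/RFP ratio change of at least 30% with cell ATP level not reduced by more than half and red fluorescence within 50% of control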; further: strong numbers were not always called active
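Assay system: HT1080 cells carrying an RFP-PRO-GFP reporter | Dosing: Single dose of 20 µM compound, 1% DMSO final | Incubation: Cells overnight before dosing, compound overnight, 37 °C, 5% CO2 | Evaluation: GFP/RFP fluorescence ratio | Control set: DMSO and RFP-L50D-GFP cell wells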
eIF4H FP inh: inhibitors of RNA binding by human eIF4H; Q15056; hit rate 0.94% among 290,000; eIF4H fluorescence polarization binding assay; inhibition, % at 35 µM;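 active means 50% or more with normal probe brightness, or confirmed in later tests; inconclusive means above 50% with abnormal brightness, or retests that disagree; inactive means below 50% or failed in later tests; about a fifth of its hits are not listed in these tables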;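 further: calls also rest on retests at 20 µM and on dose response follow-up; 0% = protein and probe with vehicle and 100% = probe without protein; strong numbers were not always called active; many hits fall short of the cut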
Rce1 inhib: yeast Ras-converting enzyme inhibition. Q03530. yeast membranes, quenched prenylated peptide cleavage fluorescence. calls only. hit rate 0.27% among 290,000;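 active means fall in fluorescence gain of 50% or more versus controls, with final raw signal at or below 3038400; inconclusive means same 50% fall but final raw signal above 3038400; inactive means fall in fluorescence gain under 50%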;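 further: plate controls were neutral control wells for no effect and wells lacking membranes for full effect; tested at 10 µM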
CSC inhib: blocks cancer stem cells; cancer stem cell-like cells viability, luminescence; inhibition, % at 7.5 µM; hit rate 1.1% among 300,000; AID 2717;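 active means mean at 75% or more and at least half the replicates too; inconclusive means mean and replicates disagree; tested in HMLE shEcad cells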;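 further: 0% = median of negative and 100% = median of positive control wells; the first replicate is given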
eIF4H FP inh retest: further read-out of eIF4H FP inh, marked with its call; inhibition, %; compound at 20 µM; confirmation average;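 mean of two retest wells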
PABP FP inh retest: second read-out of PABP FP inh, no call of its own (marks repeat the call); inhibition, %; compound at 20 µM; confirmation repeats;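 mean of two retest wells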
MT1-MMP act inh RFP: second read-out of MT1-MMP act inh, no call of its own (marks repeat the call); RFP signal change, %; measured here: RFP expression control read;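 0 = vehicle wells; hits needed this value within 50% of zero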
Starred values were filed as active, the others as inactive; i = inactive; ? = inconclusive; . = not tested or not shown.

Preview:
SMILES | UUG fidelity | Env fusion inh | PABP FP inh | MT1-MMP act inh | MT1-MMP act inh RFP | eIF4H FP inh | Rce1 inhib | CSC inhib | others
CCC(C)C(NC(=O)OC(C)(C)C)C(=O)NC(C)C(N)=O (configuration not stated) | . | -8 | -1 | 1 | 7 | 5 | i | 5
CC1C/C(=C\c2cccnc2)C(=O)/C(=C/c2cccnc2)C1 (configuration not stated) | . | . | 59 | -5 | -26 | -1 | . | ? | eIF4H FP inh retest=-9;PABP FP inh retest=-2

The listing, from the start:
SMILES | UUG fidelity | Env fusion inh | PABP FP inh | MT1-MMP act inh | MT1-MMP act inh RFP | eIF4H FP inh | Rce1 inhib | CSC inhib | others
CCC(C)C(NC(=O)OC(C)(C)C)C(=O)NC(C)C(N)=O (configuration not stated) | . | -8 | -1 | 1 | 7 | 5 | i | 5
CC1C/C(=C\c2cccnc2)C(=O)/C(=C/c2cccnc2)C1 (configuration not stated) | . | . | 59 | -5 | -26 | -1 | . | ? | eIF4H FP inh retest=-9;PABP FP inh retest=-2
O=C1C2C3C=CC(C4CC34)C2C(=O)N1/N=C/c1cccs1 (configuration not stated) | . | -9 | 2 | -1 | 1 | 8 | i | 7
O=C(c1cc(S(=O)(=O)N2CCCC2)c(Cl)cc1Cl)N1CCCC1 | -13 | -6 | -1 | -1 | -2 | 4 | i | -11
O=C(N/N=C/c1ccc(OC(=O)c2ccco2)cc1)c1ccncc1 | -15 | -8 | 16 | 0 | 3 | 8 | i | -15
CNc1ccc2ncc(-c3ccc(OC)c(OC)c3)n2n1 | -11 | 58* | . | -16 | -12 | . | . | .
CCOc1ccc(CCNC(=O)Cn2nc(C)c3c(C)n(-c4ccccc4)nc3c2=O)cc1OCC | 15 | -19 | 6 | 5 | 1 | -10 | i | -1
CC(=O)N(C)c1ccc(NC(=O)Nc2ccc(Cl)cc2)cc1 | -10 | -13 | . | 5 | 3 | . | i | 0
Cn1c(=O)c(-c2ccccc2N)nc2ccccc21 | . | -121 | -10 | -2 | 2 | 0 | i | 6
CN(C)c1ccc(CNC(=O)C2Cc3c(-c4ccccc4Oc4ccccc4)ccnc3O2)cc1 (configuration not stated) | -41 | -4 | . | 1 | -6 | . | . | .
O=C(c1ccccc1)N1CCN(c2ccc(Cl)cc2)CC1 | 11 | . | -2 | 4 | -8 | -9 | i | -6
CCNc1ccc(S(N)(=O)=O)cc1[N+](=O)[O-] | 1 | 25 | -12 | -2 | 3 | -6 | i | 3
CCOC(=O)C1=C(N)OC2=C(C(=O)CC(C)(C)C2)C1c1cccnc1 (configuration not stated) | -19 | 13 | -4 | 0 | 1 | 1 | i | -6
Cn1nnnc1SC(C(=O)Nc1ccc(F)cc1)c1ccccc1 (configuration not stated) | -15 | 18 | 4 | 2 | 2 | -8 | i | -8
COc1ccc(CNC(=O)CCNS(=O)(=O)c2cc(Br)cnc2N)cc1 | -2 | . | . | -5 | -5 | . | i | -9
COc1ccccc1N(CC1CO1)S(=O)(=O)c1ccc(C)cc1 (configuration not stated) | -14 | -8 | -7 | -1 | 2 | 0 | i | -16
Clc1cccc(Cc2c(C3CCCCC3)nc3ccc(Br)cn23)c1 | -22 | 14 | . | -1 | -4 | . | . | .
COc1ccc(Br)cc1S(=O)(=O)N1CCCC1 | -10 | 8 | 2 | 3 | 0 | -4 | i | 4
Cc1ccc(NC(=O)N2CCCc3ccccc32)cc1C | 3 | -10 | -3 | -5 | 0 | -16 | i | -4
CC(C)CCNC(=O)c1cc2c(s1)-c1ccccc1S(=O)(=O)C2 | -19 | -6 | -2 | 3 | -5 | 3 | i | -8
O=C(C1CCCO1)N1CCN(c2ccccn2)CC1 (configuration not stated) | -12 | 0 | 1 | -2 | -2 | 25 | i | -7
CSc1sc(C(=O)N2CCCCC2)c(-c2cccs2)c1C#N | -9 | 9 | 10 | -1 | 2 | 3 | i | 8
CN(CCCNC(=O)Cn1c(=O)c2cccn2c2ccccc21)Cc1ccccc1 | -5 | 5 | 0 | 1 | 4 | -3 | i | -9
COc1ccc(OC)c(Nc2nc(NCc3ccco3)nc(N)c2[N+](=O)[O-])c1 | -17 | 29 | 7 | -2 | -1 | 6 | i | 15

4 records picked at random from those above, as already listed:
SMILES | UUG fidelity | Env fusion inh | PABP FP inh | MT1-MMP act inh | MT1-MMP act inh RFP | eIF4H FP inh | Rce1 inhib | CSC inhib | others
CSc1sc(C(=O)N2CCCCC2)c(-c2cccs2)c1C#N | -9 | 9 | 10 | -1 | 2 | 3 | i | 8
COc1ccc(Br)cc1S(=O)(=O)N1CCCC1 | -10 | 8 | 2 | 3 | 0 | -4 | i | 4
Cn1nnnc1SC(C(=O)Nc1ccc(F)cc1)c1ccccc1 (configuration not stated) | -15 | 18 | 4 | 2 | 2 | -8 | i | -8
O=C(C1CCCO1)N1CCN(c2ccccn2)CC1 (configuration not stated) | -12 | 0 | 1 | -2 | -2 | 25 | i | -7

New compounds follow:
SMILES | UUG fidelity | Env fusion inh | PABP FP inh | MT1-MMP act inh | MT1-MMP act inh RFP | eIF4H FP inh | Rce1 inhib | CSC inhib | others
CC(=O)c1c(C)[nH]c(C(=O)OCC(=O)Nc2cc(C)on2)c1C | -7 | 46 | 4 | 5 | -9 | -10 | i | 2
COc1ccccc1C(=O)Nc1ccnn1C1CCN(Cc2ncc[nH]2)CC1 | -23 | -13 | -4 | -5 | 1 | -9 | i | -4
CCOC(=O)CN1C(=O)/C(=C/c2ccc(Cl)cc2)Oc2ccccc21 | . | -8 | -4 | 2 | 2 | 12 | i | 2
O=C(CNS(=O)(=O)c1cccs1)N1CCN(c2ccccn2)CC1 | -14 | . | 0 | -3 | -1 | -3 | i | -7
Cc1c(Cl)cccc1NC(=S)NCc1ccc(Cl)cc1 | -18 | 15 | . | -1 | 5 | . | i | 0
CCCCC(=O)NN(C)c1nc(-c2ccccc2)nnc1C(F)(F)F | -10 | i | -9 | -4 | -7 | -16 | i | 6
CCOc1ccc(-c2ccc(SCC(=O)Nc3nnc(CC)s3)nn2)cc1 | . | -89 | -4 | 2 | 3 | -2 | i | 8
COC(=O)C1=[N+]([O-])OC(C(=O)OC)C1c1c[nH]c2ccccc12 (configuration not stated) | -24 | . | -2 | -5 | 3 | -12 | i | -7
Cc1c(Cl)cccc1N(CC(=O)NC1CCCCC1)S(C)(=O)=O | -11 | -2 | 0 | -3 | -2 | 3 | i | -13
O=C(O/N=C1/CCSc2ccccc21)c1ccccc1 | -34 | . | 3 | 0 | 4 | -3 | i | 4
Cc1ccc(CN2CCN(Cc3cccn3-c3ccc(Cl)cn3)CC2CCO)o1 (configuration not stated) | 5 | 2 | 14 | 2 | 3 | 10 | i | -3
O=C(NCCO)/C(=C/c1cccc([N+](=O)[O-])c1)NC(=O)c1ccco1 | . | -14 | -3 | 0 | 1 | 2 | i | 11
Cc1cccc(CCN2CCC(C(=O)c3ccc(NS(C)(=O)=O)cc3)CC2)n1 | . | . | 7 | . | . | 8 | i | -10
O=C(OCC(=O)N1CCNC1=O)c1ccccc1Cl | -29 | -1 | . | 1 | 7 | . | . | .
COC(=O)c1ccc2nc(C)c(C)nc2c1 | -12 | -45 | -1 | -2 | 5 | 7 | i | -2
CC(=O)n1nc(-c2ccco2)nc1N | -13 | . | -1 | 4 | 4 | -16 | i | -6
CCn1c2ccccc2c2nnc(SCC(=O)N3CC(C)OC(C)C3)nc21 (configuration not stated) | -8 | -6 | 6 | 6 | 0 | -3 | i | -8
CC(=O)c1ccc(NC(=O)CCNC(=O)c2ccccc2Cl)cc1 | -11 | -4 | 0 | 3 | 9 | -6 | i | -2
O=C(NNC(=O)C12CC3CC(CC(C3)C1)C2)[C@@H]1C[C@H]1c1ccccc1 | 4 | 12 | 2 | -4 | -2 | -12 | i | 4
Cc1cccn2c(=O)c3cc(C#N)c(=N)n(Cc4cccnc4)c3nc12 | -16 | -92 | . | 0 | 2 | . | . | .
COc1cc([C@H]2c3[nH]c4ccccc4c3C[C@H]3C(=O)N4[C@@H](c5cc(OC)c(OC)c(OC)c5)c5[nH]c6ccccc6c5C[C@H]4C(=O)N23)cc(OC)c1OC | -9 | . | 42 | 2 | 1 | 3 | i | -6
O=C(CSc1n[nH]c(=O)n1-c1ccccc1)Nc1ccccc1C(F)(F)F | -9 | 4 | -2 | 1 | 1 | -9 | i | -8
COc1cccc(CC2(CO)CCN(CC3=CC[C@H]4C[C@@H]3C4(C)C)CC2)c1 | -10 | 13 | 0 | -1 | 2 | 4 | i | 17
O=C(NCCc1ccc(O)c(O)c1)C1COc2ccccc2O1 (configuration not stated) | -5 | 6 | 13 | 6 | -5 | 5 | i | .
CCc1nc(SCc2ccc(F)cc2)[nH]c(=O)c1C#N | -8 | 3 | 17 | 4 | 6 | 2 | . | 36
O=C(COC(=O)c1ccc2c(c1)OCO2)NCc1ccc(Cl)cc1 | -6 | 4 | -8 | -2 | 1 | 0 | i | 18
Cc1cc(NC(=O)CCC(=O)N(Cc2ccco2)C2(C(=O)NC3CCCCC3)CCN(C)CC2)no1 | -17 | -10 | -5 | -9 | 2 | -17 | i | -8
C[C@]12c3[nH]c4ccccc4c3CCN1C(=O)C(CC(=O)NCCN1CCOCC1)C[C@@H]2C(=O)N1CCCCC1 (some centres not stated) | -20 | 17 | . | -3 | 0 | . | . | .
COC(=O)[C@H](Cc1ccccc1)NC(=O)[C@@]1(C)C[C@@H]1[C@@H](NC(=O)OCc1ccccc1)c1ccccc1 | 1 | 12 | 0 | 5 | 0 | -4 | i | -3
COc1cc(OC)c(OC)cc1CNCCSc1nnnn1C | . | 12 | -1 | 3 | -1 | 4 | i | 50
CCS(=O)(=O)c1ccc2oc(Nc3ccccc3C)nc2c1 | -28 | . | -5 | -4 | 2 | 6 | i | 9
CCOc1ccccc1NC(=O)CSc1nnc2c(CC)c(C)nc(N)n12 | 3 | 21 | 3 | -4 | 0 | 5 | i | -3
Clc1nc(-c2ccccc2)c2ccccc2n1 | -16 | -13 | -4 | 0 | 0 | 10 | i | -7
CCCc1ccc2oc(C(=O)N(C)Cc3cnccn3)c(C)c2c1 | -11 | 12 | 12 | 1 | 2 | 4 | i | 5
Cc1cc(C)c(C2=CSC3=NS(=O)(=O)CCN23)c(C)c1 | . | -3 | 7 | -2 | 1 | -7 | . | -9
Cc1ccc(S(=O)(=O)NN2C(=O)c3ccccc3NC2c2ccccn2)cc1 (configuration not stated) | . | 10 | -1 | -6 | -7 | 4 | i | .
CSc1ccc(CN2CCCC(CNC(=O)c3ccc(F)cc3)C2)cc1 (configuration not stated) | . | 12 | -10 | -2 | -1 | -9 | i | -4
CSc1cccc(NC(=O)CN(c2cc(C)ccc2C)S(C)(=O)=O)c1 | -2 | . | 0 | -3 | -5 | -13 | i | 5

A stretch taken from the entries so far, for reference:
SMILES | UUG fidelity | Env fusion inh | PABP FP inh | MT1-MMP act inh | MT1-MMP act inh RFP | eIF4H FP inh | Rce1 inhib | CSC inhib | others
CCC(C)C(NC(=O)OC(C)(C)C)C(=O)NC(C)C(N)=O (configuration not stated) | . | -8 | -1 | 1 | 7 | 5 | i | 5
CC1C/C(=C\c2cccnc2)C(=O)/C(=C/c2cccnc2)C1 (configuration not stated) | . | . | 59 | -5 | -26 | -1 | . | ? | eIF4H FP inh retest=-9;PABP FP inh retest=-2
O=C1C2C3C=CC(C4CC34)C2C(=O)N1/N=C/c1cccs1 (configuration not stated) | . | -9 | 2 | -1 | 1 | 8 | i | 7

Only part of the results is shown, so the mix of outcomes need not match the whole.
